# Screens as filed in PubChem.
# UUG fidelity – modulators of yeast start codon fidelity, primary screen, whole organism, S. cerevisiae, single point, plate reader; 0.13% of 350,000 active; activity score, % at 18.7 µM; S. cerevisiae UUG-firefly luciferase reporter, luminescence/redox ratio;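 active = replicate mean at a twofold rise or more, about +100% in these data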;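 note: firefly luciferase made from a UUG start codon reports start codon fidelity; reporter light over untreated wells divided by growth signal over untreated wells; some hits fall short of that in this replicate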
# eIF4H FP inh – human eIF4H binding inhibitors, primary screen, translation initiation inhibitor project, biochemical, uHTS, fluorescence polarization; Eukaryotic translation initiation factor 4H (Homo sapiens), Q15056; eIF4H fluorescence polarization binding assay; inhibition, % at 35 µM; 0.94% of 290,000 active; AID 2012, 2009;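 active = 50% or more with normal probe brightness, or confirmed in later tests; inconclusive = above 50% with abnormal brightness, or retests that disagree; inactive = below 50% or failed in later tests; about a fifth of its hits are not listed in these tables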;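 note: calls also rest on retests at 20 µM and on dose response follow-up; 0% = protein and probe with vehicle and 100% = probe without protein; strong numbers were not always called active; many hits fall short of the cut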
# CSC inhib – cancer stem cell viability inhibitors, primary screen, luminescence | inhibition, % at 7.5 µM | 1.1% of 300,000 active | cancer stem cell-like cells viability | AID 2717, 2010;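 active = mean at 75% or more and at least half the replicates too; inconclusive = mean and replicates disagree; tested in HMLE shEcad cells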;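 note: 0% = median of negative and 100% = median of positive control wells; the first replicate is given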
# MT1-MMP act inh – blockers of MT1-MMP proenzyme processing, primary screen, HT1080 RFP-PRO-GFP cells, GFP/RFP fluorescence | Matrix metalloproteinase-14 (Homo sapiens), P50281 | GFP/RFP ratio fluorescence, overnight; percent of plate control window, DMSO zero | GFP/RFP ratio change, % at 20 µM | 0.061% of 360,000 active;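 active = GFP/RFP ratio change of at least 30% with cell ATP level not reduced by more than half and red fluorescence within 50% of control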; note: strong numbers were not always called active
#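 Assay system: HT1080 cells carrying an RFP-PRO-GFP reporter | Dosing: Single dose of 20 µM compound, 1% DMSO final | Incubation: Cells overnight before dosing, compound overnight, 37 °C, 5% CO2 | Evaluation: GFP/RFP fluorescence ratio | Control set: DMSO and RFP-L50D-GFP cell wells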
# HIV Env fusion – inhibitors of HIV-1 Env-driven cell-cell fusion, primary screen, HeLa-JRFL effector, CEM21 target cells, luciferase. AID 651610, 2012. 1.1% of 360,000 active. inhibition, % at 12.3 µM;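 active = mean replicate inhibition score of at least 50 and every replicate individually at or above 50; inconclusive = only one of the two criteria met; inactive = mean below 50 and not all replicates reaching 50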;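 note: 0% = plate neutral controls and 100% = maraviroc near 300 nM; one replicate is shown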
# PABP polyA inh – PABP poly(A) RNA binding inhibitors, primary screen, biochemical, fluorescence polarization, uHTS; 1% of 290,000 active; Polyadenylate-binding protein 1 (Homo sapiens), P11940; inhibition, % at 35 µM;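 active = 50% or more with normal probe brightness, or confirmed in later tests; inconclusive = above 50% with abnormal brightness, or retests that disagree; inactive = below 50% or failed in later tests; about a fifth of its hits are not listed in these tables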;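 note: calls also rest on retests at 20 µM and on dose response follow-up; controls were probe without protein and protein plus probe with vehicle; some compounds called inactive have numbers as strong as hits; many hits fall short of the cut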
# Target sequence (P11940 whole entry, looked up): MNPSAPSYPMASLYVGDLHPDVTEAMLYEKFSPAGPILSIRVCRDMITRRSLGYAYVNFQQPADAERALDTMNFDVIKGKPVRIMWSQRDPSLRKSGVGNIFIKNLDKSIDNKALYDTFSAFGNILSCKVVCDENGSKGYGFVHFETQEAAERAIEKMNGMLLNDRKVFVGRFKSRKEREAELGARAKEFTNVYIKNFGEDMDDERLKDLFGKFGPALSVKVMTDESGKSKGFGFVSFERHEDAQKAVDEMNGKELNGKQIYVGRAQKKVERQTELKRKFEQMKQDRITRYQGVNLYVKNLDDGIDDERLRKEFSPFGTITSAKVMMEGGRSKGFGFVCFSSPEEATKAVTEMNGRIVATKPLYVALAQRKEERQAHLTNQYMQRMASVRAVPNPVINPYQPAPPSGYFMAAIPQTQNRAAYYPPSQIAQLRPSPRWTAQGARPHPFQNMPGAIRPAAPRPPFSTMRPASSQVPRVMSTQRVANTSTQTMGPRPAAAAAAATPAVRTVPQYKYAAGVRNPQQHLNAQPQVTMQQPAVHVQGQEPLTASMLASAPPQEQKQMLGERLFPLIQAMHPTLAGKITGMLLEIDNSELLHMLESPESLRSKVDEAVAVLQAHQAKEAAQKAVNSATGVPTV
# Rce1 inh – yeast Rce1p protease inhibitors, primary screen, biochemical, fluorescence, cell-free homogeneous. CAAX prenyl protease 2 (Saccharomyces cerevisiae (strain ATCC 204508 / S288c)), Q03530. yeast membranes, quenched prenylated peptide cleavage fluorescence. calls only. 0.27% of 290,000 active;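 active = fall in fluorescence gain of 50% or more versus controls, with final raw signal at or below 3038400; inconclusive = same 50% fall but final raw signal above 3038400; inactive = fall in fluorescence gain under 50%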;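 note: plate controls were neutral control wells for no effect and wells lacking membranes for full effect; tested at 10 µM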
# Target sequence (Q03530 whole entry, looked up): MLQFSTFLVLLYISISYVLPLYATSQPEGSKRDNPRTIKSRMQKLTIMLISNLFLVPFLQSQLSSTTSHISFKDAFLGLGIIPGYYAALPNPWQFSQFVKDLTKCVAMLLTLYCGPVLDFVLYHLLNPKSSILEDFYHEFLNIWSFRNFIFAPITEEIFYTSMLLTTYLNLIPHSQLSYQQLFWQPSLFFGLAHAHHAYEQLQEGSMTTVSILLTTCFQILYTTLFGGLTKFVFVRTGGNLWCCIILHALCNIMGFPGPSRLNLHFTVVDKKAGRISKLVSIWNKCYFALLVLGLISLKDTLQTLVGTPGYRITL
# eIF4H FP inh retest – also measured in eIF4H FP inh; calls as there; inhibition, %; compound at 20 µM; confirmation average;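 mean of two retest wells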
# PABP polyA inh retest – second read-out of PABP polyA inh, no call of its own (marks repeat the call); inhibition, %; compound at 20 µM; confirmation repeats;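 mean of two retest wells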
# MT1-MMP act inh RFP – recorded beside MT1-MMP act inh, whose call it bears; RFP signal change, %; measured here: RFP expression control read;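 0 = vehicle wells; hits needed this value within 50% of zero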
# * = called active by the depositor; i = inactive; ? = inconclusive; . = not tested or not shown.
SMILES,UUG fidelity,eIF4H FP inh,CSC inhib,MT1-MMP act inh,MT1-MMP act inh RFP,HIV Env fusion,PABP polyA inh,Rce1 inh,others
O=C(Cc1cccs1)NCc1cccc(F)c1,.,4,.,-5,-9,-7,5,i,
O=c1[nH][nH]cc1C=NCc1cccnc1,-6,-1,-11,2,4,6,-10,i,
CCC(=O)Nc1cccc(-c2nc3ncccc3o2)c1C,-9,7,4,-1,3,-13,2,i,
CC1C(=O)CC(c2ccccc2)NC1c1ccccc1 (stereo unspecified),-23,-7,-4,-8,-4,-5,0,.,
CCCc1[nH]nc2c1C1(CCOC1C)C(C#N)=C(N)O2 (stereo unspecified),-23,1,15,9,5,37,0,i,
NC(=O)c1ccc(N2CCN(c3ccc(O)cc3)CC2)c([N+](=O)[O-])c1,.,24,12,0,3,66*,13,i,
NC(=O)COC(=O)c1ccc(Cl)c(S(=O)(=O)N(Cc2ccccc2)c2ccc(Cl)cc2)c1,.,-13,50,0,1,8,-8,i,
O=C(Nc1ccccc1-c1nc2ccccc2[nH]1)c1ccc(S(=O)(=O)N2CCCCC2)cc1,5,1,.,-1,1,-8,-6,i,
CCOC(=O)C1=C(C)C2C3C(=O)N(c4ccc(C)cc4C)C(=O)C3C1(C)C1C(=O)N(c3ccc(C)cc3C)C(=O)C21 (stereo unspecified),-8,6,-14,3,2,17,-2,i,
COc1ccc(C(=O)N/C(=C\c2cccs2)C(=O)N2CCN(C)CC2)cc1OC,-4,-3,-3,-1,5,18,9,i,
Cc1cccc(NS(=O)(=O)c2csc(C(N)=O)c2)c1C,-16,11,-15,3,-1,5,15,i,
CCCn1c(N)c(C(=O)CSc2nc3ccccc3c(=O)n2Cc2ccccc2)c(=O)[nH]c1=O,.,8,20,-5,-4,1,2,i,
CCOc1ncccc1C(=O)OCc1c(Cl)cccc1Cl,-19,-6,-5,5,5,1,-8,i,
CC(C)(C)n1nnnc1C(c1cccc(C#N)c1)N1CCN2CCCC2C1 (stereo unspecified),-19,3,0,1,3,-74,-11,i,
CC(C)CCNC(=O)COc1ccc2c(c1)C(=O)CC(C)(C)O2,-5,-3,-8,-3,-7,-69,5,i,
COc1ccc(N(CC(=O)NCc2ccco2)C(=O)CNS(=O)(=O)c2ccc(Cl)cc2)cc1,-15,-1,3,3,0,-2,7,i,
COc1ccc(CNC(=O)CCS(=O)(=O)c2cccc3nonc23)cc1,-9,-9,-19,-3,-1,10,1,.,
COc1ccccc1C(=O)NC(=S)NNC(=O)c1sc2ccccc2c1Cl,.,6,55,-2,-26,7,18,i,
Cc1cc(C)c2nc(NC(=O)C3CC(=O)N(Cc4ccco4)C3)sc2c1 (stereo unspecified),11,10,7,0,2,12,9,i,
COc1ccc(N(CC(=O)NC2CCCCC2)S(=O)(=O)c2c(C)[nH]c(=O)[nH]c2=O)cc1,-12,-3,-7,-1,2,20,3,i,
Cn1c(SCC(=O)Nc2ccccc2-c2ccccc2)nnc1-c1ccco1,-24,-3,3,4,-3,.,-3,i,
CCn1cc(CN2CCC(C(=O)Nc3ccc(Oc4ccccc4F)cc3)CC2)c(C)n1,-7,-6,6,4,-9,16,-6,i,
CCCOc1ccc(S(=O)(=O)Nc2ccccn2)c2ccccc12,-5,-9,-8,1,-4,7,-7,i,
O=C(Cc1nnc(NC(=O)Nc2ccccc2)s1)NCc1ccccc1,.,-8,-9,6,-2,-5,7,i,
Brc1ccc(C2Nc3cccc4cccc(c34)N2)o1,-11,99*,-5,0,7,.,104*,i,
S=C(Nc1ccccc1Cl)N(Cc1ccccc1)Cc1ccccn1,.,10,11,-1,-1,9,2,i,
Cc1nn(CC(=O)Nc2ccc3c(c2)CCC3)c(C)c1[N+](=O)[O-],-9,.,-2,10,4,.,.,.,
O=C(CC1C(=O)NCCN1C(=O)c1ccc(Cl)cc1)Nc1ccc(F)cc1 (stereo unspecified),-10,3,1,-1,1,6,8,i,
COc1cccc(OC)c1C(=O)NCc1ccco1,-12,.,.,0,4,-1,.,.,
COc1cccc([C@@H]2CC=C(C(=O)O)CN2S(=O)(=O)c2ccc(C)cc2)c1,4,.,7,-1,1,-25,.,.,

# For reference, some entries already given.
SMILES,UUG fidelity,eIF4H FP inh,CSC inhib,MT1-MMP act inh,MT1-MMP act inh RFP,HIV Env fusion,PABP polyA inh,Rce1 inh,others
Cc1nn(CC(=O)Nc2ccc3c(c2)CCC3)c(C)c1[N+](=O)[O-],-9,.,-2,10,4,.,.,.,
O=C(CC1C(=O)NCCN1C(=O)c1ccc(Cl)cc1)Nc1ccc(F)cc1 (stereo unspecified),-10,3,1,-1,1,6,8,i,
COc1cccc(OC)c1C(=O)NCc1ccco1,-12,.,.,0,4,-1,.,.,
COc1cccc([C@@H]2CC=C(C(=O)O)CN2S(=O)(=O)c2ccc(C)cc2)c1,4,.,7,-1,1,-25,.,.,

# (listing goes on)
SMILES,UUG fidelity,eIF4H FP inh,CSC inhib,MT1-MMP act inh,MT1-MMP act inh RFP,HIV Env fusion,PABP polyA inh,Rce1 inh,others
O=C(c1cnc(Cc2c[nH]c3ccccc23)c(I)c1)N1CCOCC1,-5,.,.,0,-1,-9,.,.,
Cn1c([N+](=O)[O-])cnc1N1CCN(c2nncs2)C1=O,-11,1,-10,0,2,-20,14,i,
CC1C[C@@]2(NC(=O)NC2=O)C(C)CN1C (stereo partly specified),-9,6,-2,1,-2,.,-9,i,
CC1=CCC(C(=O)O)C(C(=O)NC2CCCCC2)C1 (stereo unspecified),-10,70*,3,0,4,0,13,i,eIF4H FP inh retest=71*;PABP polyA inh retest=-2
COc1ccc(OC)c(NC(=O)CSc2nnc(CNC(=O)c3cc(OC)c(OC)c(OC)c3)o2)c1,-13,-9,-11,0,5,4,18,i,
CC(C)C(=O)N1CCC2(CC1)Oc1ccc(Cl)cc1C(=O)C21CC(c2ccc(Cl)cc2)=NO1 (stereo unspecified),-20,-5,21,-10,-10,-12,-5,i,
O=C(CCCN1C(=O)c2cccc3cccc(c23)C1=O)N1CCN(Cc2ccc3c(c2)OCO3)CC1,29,-4,12,0,-3,-14,11,.,
O=[N+]([O-])c1ccc(-c2ccc(/C=N/O)o2)cc1,-1,-2,-14,1,-3,-30,5,i,
Cc1cccc(-n2c(Cc3cc(=O)[nH]c(=O)[nH]3)nnc2SCC(=O)N2CCCCC2)c1,-1,9,-8,-1,2,-16,7,i,
CC(=C/c1ccco1)/C=N/NC(=O)Cc1cccn1C,.,74,.,1,5,24,3,i,eIF4H FP inh retest=1;PABP polyA inh retest=-3
Cc1ccc([C@H]2C(C(=O)O)=CC[C@@H](c3ccc(Cl)c(Cl)c3)N2S(=O)(=O)c2ccc(C)cc2)cc1,-11,.,.,-2,-4,15,.,.,
COc1ccc([C@H]2N[C@]3(CCCN(Cc4cccn4C)C3=O)[C@H]3C(=O)N(Cc4ccccc4)C(=O)[C@@H]23)cc1,-15,.,.,-22,-43,-25,.,.,
Cc1ccc(N2CCN(C(=O)c3ccccc3NC(=O)c3ccccc3C(=O)O)CC2)cc1,.,27,-12,-2,2,29,-9,i,
O=C(Cc1ccsc1-c1ccccc1)NO,-9,-10,2,1,3,.,-1,i,
Cc1ccc(S(=O)(=O)C=CS(=O)(=O)c2ccc(C)cc2)cc1,40,.,.,5,0,-9,.,.,
O=C(CN1C(=O)c2ccccc2S1(=O)=O)c1ccc2c(c1)OCCCO2,-6,-23,-7,-2,2,91*,-18,i,
C/C(=N\Nc1nccnc1Cl)c1ccc(O)c(C)c1,12,-2,-3,0,5,-12,13,i,
O=S(=O)(c1ccc(-c2csc(=Nc3ccccc3)n2CCCN2CCOCC2)cc1)N1CCOCC1,-8,-7,6,-2,0,.,-7,i,
COc1ccc(S(=O)(=O)N(CCCN2CCCC2=O)Cc2cc3c(C)cc(C)cc3[nH]c2=O)cc1,8,4,.,3,-3,.,4,.,
COc1ccc(NC(=O)CN(c2ccc(C)cc2)S(=O)(=O)c2c(C)nn(C)c2C)cc1OC,-13,-10,2,2,4,-39,-14,i,
CCN(C(=O)Cn1c(=O)oc2cc(S(=O)(=O)N3CCOCC3)ccc21)c1ccccc1,.,-2,1,-6,0,-13,15,i,
O=C(COc1cc2oc(=O)cc(-c3ccccc3)c2cc1Cl)NC(Cc1c[nH]c2ccc(O)cc12)C(=O)O (stereo unspecified),-8,47,-2,-2,3,.,42,i,
CCCCNS(=O)(=O)c1ccc2nc(SCC(=O)N3CC(C)OC(C)C3)[nH]c2c1 (stereo unspecified),.,-3,5,2,-5,.,2,i,
Nc1c(Cl)ncnc1N/N=C/c1cccc(O)c1,.,-4,10,-2,-1,-1,4,i,
CC(C)Sc1nc2c(c(=O)n1-c1ccc(F)cc1)SCC2,7,-1,-1,2,-10,-76,-4,i,
O=[N+]([O-])c1cccnc1Oc1ccc(F)cc1,-17,12,1,0,1,-6,11,i,
Cc1cccc(CCN2C(Nc3ccccc3)=NC[C@@H]2CC(C)C)c1,-8,.,25,-4,2,-21,.,.,
Cc1ncc(CN2CCN(Cc3ccc(F)cc3)C(CCO)C2)s1 (stereo unspecified),-14,0,4,1,1,3,-7,i,
COCCOC(=O)c1c(C)oc2ccc(OC(=O)c3c(OC)cccc3OC)cc12,-6,14,-8,4,2,-18,4,i,
CCN1C(=S)SC(=O)C1=C1C=C(C)OC(C)=C1,-18,?,4,-40,12,.,?,i,
CC(=O)NCc1ccc(-c2csc(-c3cccs3)n2)cc1,-28,-2,21,-7,-1,-79,-2,i,
CC(C)c1ccc(NC2CCCN(C(=O)CCN3CCCO3)C2)cc1 (stereo unspecified),-5,3,6,-2,0,6,13,i,
NC(=O)CN1CCN(C2CC(=O)N(CCc3ccccc3)C2=O)CC1 (stereo unspecified),-19,7,-9,7,1,20,0,i,
CCN1CCN(C(=O)c2cc3c(s2)-c2ccccc2S(=O)(=O)C3)CC1,-14,-13,50,2,-1,4,-6,i,
COCCN1CC(C(=O)NCCc2nc(C)c(C)s2)CCC1=O (stereo unspecified),-22,0,-6,-2,0,-8,5,i,
Cc1csc(SCCn2c(Br)nc3c2c(=O)[nH]c(=O)n3C)n1,-15,2,-16,-2,3,.,-5,i,
CC(=O)OC1CCC(OC(C)=O)c2c1n([O-])c(C)c(C)[n+]2=O (stereo unspecified),-3,-4,11,0,1,.,-12,i,
CCc1cccc(C)c1NC(=S)NCc1cccn1C,.,-3,5,-2,6,-13,5,i,
CC(C#N)(Nc1ccc(Cl)cc1)c1cccnc1 (stereo unspecified),-12,6,49,5,2,-42,26,i,
C[C@@H](C(=O)N[C@@H](Cc1c[nH]c2ccccc12)C(=O)O)n1nnc2ccccc2c1=O,-10,4,-6,-1,-1,1,19,i,
COc1ncnc2c1ncn2CCCNCc1ccco1,-26,.,.,0,5,9,.,.,
CCOc1ccc(CCNC(=O)c2cc(C)nc3ccccc23)cc1OCC,-8,0,-4,1,1,-12,-1,i,

# Rows are unselected; any-hit rate near 3%.
